KCNQ2 block = KCNQ2 potassium channel inhibitors, primary screen, cell-based, CHO-K1, FluxOR thallium flux, B-score (AID 2156). Potassium voltage-gated channel subfamily KQT member 2 (Rattus norvegicus), O88943. 20 min; active compounds read low; only compounds with negative scores are shown here; some inactives read as strong as hits. B-score at 10 µM. actives 1.1% (n = 310,000);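 active means fluorescence ratio B-score at most minus 3 library SDs, with starting brightness B-score within 2 library SDs, cut at about -5.5 in these data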
Target sequence (O88943 whole entry, looked up): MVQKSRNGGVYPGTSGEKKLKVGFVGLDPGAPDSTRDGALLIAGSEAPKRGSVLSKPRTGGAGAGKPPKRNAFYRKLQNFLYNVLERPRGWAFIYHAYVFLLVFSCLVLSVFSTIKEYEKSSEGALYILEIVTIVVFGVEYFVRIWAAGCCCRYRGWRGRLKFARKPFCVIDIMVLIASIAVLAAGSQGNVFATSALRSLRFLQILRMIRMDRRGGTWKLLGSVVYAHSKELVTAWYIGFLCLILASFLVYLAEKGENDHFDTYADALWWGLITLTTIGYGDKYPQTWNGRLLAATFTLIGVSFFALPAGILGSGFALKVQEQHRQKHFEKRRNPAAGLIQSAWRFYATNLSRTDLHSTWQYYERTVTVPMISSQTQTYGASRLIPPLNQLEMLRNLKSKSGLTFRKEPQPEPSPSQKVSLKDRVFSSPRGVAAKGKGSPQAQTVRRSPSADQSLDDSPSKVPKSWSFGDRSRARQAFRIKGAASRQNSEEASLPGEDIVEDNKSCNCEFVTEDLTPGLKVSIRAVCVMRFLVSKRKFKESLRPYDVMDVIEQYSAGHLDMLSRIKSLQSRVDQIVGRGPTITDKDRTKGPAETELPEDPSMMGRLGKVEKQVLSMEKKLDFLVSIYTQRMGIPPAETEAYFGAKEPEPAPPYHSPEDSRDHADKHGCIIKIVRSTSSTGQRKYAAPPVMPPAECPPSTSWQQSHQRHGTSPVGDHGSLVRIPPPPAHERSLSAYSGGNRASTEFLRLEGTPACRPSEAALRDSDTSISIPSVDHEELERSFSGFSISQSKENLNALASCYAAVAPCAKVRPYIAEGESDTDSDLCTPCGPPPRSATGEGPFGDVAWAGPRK
KCNQ2 block baseline = second read-out of KCNQ2 block, no call of its own (marks repeat the call); B-score; measured here: initial fluorescence intensity artifact check;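 brightness before thallium and not channel activity; 0 = typical well and far values either way flag optical interference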
Active calls of the source: *; i = inactive. These rows are one share of the data; count on the stated rates, not on these rows.

KCNQ2 block	KCNQ2 block baseline	Structure
i	-1.1	CCC(C)(C)n1nnnc1C(c1cc2ccc(C)cc2[nH]c1=O)N(Cc1cccnc1)Cc1ccco1 (stereo not given)
i	-1.7	CCCC1NC(=O)NC(C)=C1C(=O)OCC (stereo not given)
i	1.7	Cc1ccc(N(C(=O)CNC(=O)c2ccco2)C(C(=O)NC2CCCC2)c2ccncc2)c(C)c1 (stereo not given)
i	2	Cc1ccccc1OCc1nc2c3c(ncn2n1)-c1ccccc1CC31CCCC1
i	-0.01	O=C(NCCOc1cccc(Oc2ccccc2)c1)c1cc(-n2cnnc2)ccc1Cl
i	21	O=c1[nH]c2c(s1)C=Nc1ccccc1N2
i	0.89	O=[N+]([O-])c1cccc2c(N3CCCC3)ccnc12
i	0.26	COc1ccc(/C=C(/CC(=O)NCc2ccc(Cl)cc2)c2nc3ccccc3s2)cc1
i	1.2	COc1ccccc1CN1C[C@@H]2C[C@@H](c3cccc(C)n3)N3CCC[C@@]23C1=O
i	-3.3	CCOc1ccccc1NC(=O)C(OC(=O)c1ccccc1)c1ccccc1 (stereo not given)
i	2.4	CN1C(=O)/C(=C\c2cc(N=Nc3ccccc3)ccc2O)SC1=S
i	0.26	S=C(N/N=C/c1ccco1)NC1CC2CCC1C2 (stereo not given)
i	1	Cc1cc(C)c(C(=O)COC(=O)C2CC3CCCC(C2)C3=O)c(C)c1 (stereo not given)
i	-0.91	Cc1nnc(SCC(=O)NC2CCCC2)n1CCc1ccccc1
i	0.44	COc1cccc(CN2CC(C(=O)NCCc3ccc(C)s3)CCC2=O)c1 (stereo not given)
-6.1*	-0.71*	Cc1ccc(S(=O)(=O)N2CCN(CC(=O)NC3CCCc4ccccc43)CC2)c(C)c1 (stereo not given)
i	-0.34	Cn1c(C(=O)N(Cc2ccccc2)Cc2cccs2)cc2sccc21
i	-0.36	Nc1c(C(=O)NC2CCCC2)c2nc3ccccc3nc2n1/N=C/c1cccnc1
i	-0.11	CC(C)Cc1ccc(CN2CCCC(NC(=O)c3ccnn3C)C2)cc1 (stereo not given)
i	1	O=C(CC(C(=O)O)N1CCOCC1)Nc1ccc(Cl)cc1 (stereo not given)
i	-2.1	O=C(CSc1nc(C2CC2)nc2ccccc12)Nc1ccccc1N1CCOCC1
i	-0.47	COc1ccc(/C=N/NC(=O)c2ccc(NC(=O)C3CCCCC3)cc2)cc1O
i	-0.28	CN(C)S(=O)(=O)c1ccc(N2CCCC2)c(C(=O)NC2CCC(O)CC2)c1 (stereo not given)
i	-0.6	Cc1onc(-c2ccccc2Cl)c1C(=O)Nc1ccc(F)c(F)c1
i	-0.04	CCN(CC)CCCNC(=O)CSc1nc(C)cc(C)n1
i	-1.5	NC(=S)NNc1cc(Cl)cc(Cl)c1
i	-0.01	CCOC(=O)c1c(CC(C)C)csc1N
i	-1	Cc1ccc(OCc2cc(C(=O)NC(C)Cc3cccnc3)no2)cc1C (stereo not given)
i	-0.7	COc1cccc(CN2CCNC(=O)C2CC(=O)NCCc2ccccn2)c1 (stereo not given)
i	0.99	CNc1nc(C)nc(N/N=C/c2ccccc2)n1
i	1.7	O/C(=C\c1ccc2ccccc2n1)c1ccc(O)cc1O
i	-2.2	Cc1ccc(-c2cc(=O)[nH]c(NCc3ccccc3)n2)cc1

Rewritten field by field: part of the list above.
> Cc1ccc(OCc2cc(C(=O)NC(C)Cc3cccnc3)no2)cc1C (stereo not given)
  KCNQ2 block = i; KCNQ2 block baseline = -1
> CCOC(=O)c1c(CC(C)C)csc1N
  KCNQ2 block = i; KCNQ2 block baseline = -0.01

The results go on.
KCNQ2 block	KCNQ2 block baseline	Structure
i	0.23	COc1ccc(N2CCN(C(=O)CSc3nc4c(c(=O)n(C)c(=O)n4C)n3C(C)C)CC2)cc1
i	-0.03	CN(C)S(=O)(=O)c1ccc(C(=O)/C=C/c2cccnc2)cc1
i	0.95	COc1ccc2ccccc2c1/C=N/NC(=S)NCCN1CCOCC1
i	-0.48	COc1ccc(NC(=O)CN2CCN(c3ccc(Cl)cc3)CC2)c(OC)c1
i	0.27	CCCn1nc(C(=O)NCCc2ccc(S(N)(=O)=O)cc2)c2ccccc2c1=O
i	-0.01	CN(C)C(CNC(=O)c1cccc(S(=O)(=O)NCc2ccccc2)c1)c1ccco1 (stereo not given)
i	-1.8	CCCSc1ncc(Cl)c(C(=O)Nc2ccc(S(=O)(=O)N3CC(C)OC(C)C3)cc2)n1 (stereo not given)
i	0.02	Clc1cc2nc(-c3cccnc3Cl)[nH]c2cc1Cl
i	0.97	Cc1nn(C(C)C(=O)NCCCN2CCCCCC2)c(=O)c2c1sc1ccccc12 (stereo not given)
i	-0.07	COc1ccc(C(=O)N2CCN=C2c2ccccc2)cc1OC
i	0.55	C=CCSc1nc2ccccc2n1Cc1nnc(-c2cccs2)o1
i	0.03	Cc1ccc(NS(=O)(=O)c2cccc(C(=O)N3CCCCCC3)c2)cc1
i	-0.7	COC(=O)c1ccc(N2CCCCC2)c(N)c1
i	0.64	Cc1c(Cl)cccc1NC(=O)N1CCCN(c2nc(-c3ccccc3)ns2)CC1
i	-0.67	FC(F)(F)c1cccc(OCCN2CCN(Cc3ccccc3)CC2)c1
i	-1.3	O=C(Cn1cnc2c(nnn2-c2ccccc2)c1=O)N1CCC(Cc2ccccc2)CC1
i	-0.25	CCCN(CCC)C(=O)Cn1c(=O)c2sccc2n2c(=S)sc(-c3ccccc3)c12
i	0.63	CC(=O)c1ccc(N2CCN(Cc3nc4ccccc4[nH]3)CC2)cc1
i	-0.68	COc1ccc(-c2nnc3n2CCCCC3)cc1
i	-1.5	CCCN(CC1CC1)S(=O)(=O)c1ccc(S(N)(=O)=O)cc1
i	-0.04	CCc1ccc(N2CC(C(=O)OCC(=O)Nc3cc(C)on3)CC2=O)cc1 (stereo not given)
i	-0.89	O=C1CC(C(=O)N(c2ccc(F)cc2)C(C(=O)NC2CCCC2)c2ccccn2)CS1 (stereo not given)
i	1.8	Cc1cc(C)c2c(CC(=O)NN(C)C)coc2c1
i	-0.23	O=C(N/N=C/c1ccc(O)cc1)NC12CC3CC(CC(C3)C1)C2
i	0.32	Cc1ccc(-c2cc(-c3ccco3)c(C#N)c(=O)[nH]2)cc1
-7.1*	-0.6*	CC(C)(C)N1CC(c2nc3ccccc3n2Cc2ccc(Cl)cc2)CC1=O (stereo not given)
i	1.5	Cc1noc(/C=C/c2nn(C)cc2Cl)c1[N+](=O)[O-]
i	0.67	O=S1(=O)N=C(Oc2cccc3ccccc23)c2ccccc21
i	2.1	O=C(O)CCC(=O)N1CCc2cc(S(=O)(=O)NC3CCCC3)ccc21
i	0.04	Cc1noc(C)c1C(=O)Nc1ccccn1
i	0.07	CCCN(Cc1cc2ccccc2[nH]c1=O)C(=O)c1cccc([N+](=O)[O-])c1
i	0.35	Cc1ccc(C(=O)NCC(=O)OCC(=O)Nc2ccccc2C#N)s1
i	-0.2	CCOc1ccc(S(=O)(=O)Nc2cc(F)ccc2F)c2cccnc12
i	-0.12	O=C(COC(=O)Cc1ccc(S(=O)(=O)N2CCOCC2)s1)NCc1ccccc1
i	0.83	CCOC(=O)c1nc2c(=O)n(C)c(=O)n(C)c2n(C)c1=O
i	-1.1	CCS(=O)(=O)N1Cc2ccccc2CC1C(=O)Nc1ccccc1OC (stereo not given)
i	0.08	O=C(CN1C(=O)c2ccccc2S1(=O)=O)N1CCOCC1
i	2.5	Cc1ccc(/C=C/c2nc3ccccc3s2)s1
i	-1.8	COC(=O)c1cccc(-c2ccc(C(c3c(C)[nH][nH]c3=O)c3c(C)[nH][nH]c3=O)o2)c1
i	-1	Cc1ccc(S(=O)(=O)NCC(C)NS(C)(=O)=O)cc1 (stereo not given)

14 entries from above, reformatted.
compound,KCNQ2 block,KCNQ2 block baseline
O=C(N/N=C/c1ccc(O)cc1)NC12CC3CC(CC(C3)C1)C2,i,-0.23
Cc1ccc(-c2cc(-c3ccco3)c(C#N)c(=O)[nH]2)cc1,i,0.32
CC(C)(C)N1CC(c2nc3ccccc3n2Cc2ccc(Cl)cc2)CC1=O (stereo not given),-7.1*,-0.6*
Cc1noc(/C=C/c2nn(C)cc2Cl)c1[N+](=O)[O-],i,1.5
O=S1(=O)N=C(Oc2cccc3ccccc23)c2ccccc21,i,0.67
O=C(O)CCC(=O)N1CCc2cc(S(=O)(=O)NC3CCCC3)ccc21,i,2.1
Cc1noc(C)c1C(=O)Nc1ccccn1,i,0.04
CCCN(Cc1cc2ccccc2[nH]c1=O)C(=O)c1cccc([N+](=O)[O-])c1,i,0.07
Cc1ccc(C(=O)NCC(=O)OCC(=O)Nc2ccccc2C#N)s1,i,0.35
CCOc1ccc(S(=O)(=O)Nc2cc(F)ccc2F)c2cccnc12,i,-0.2
O=C(COC(=O)Cc1ccc(S(=O)(=O)N2CCOCC2)s1)NCc1ccccc1,i,-0.12
CCOC(=O)c1nc2c(=O)n(C)c(=O)n(C)c2n(C)c1=O,i,0.83
CCS(=O)(=O)N1Cc2ccccc2CC1C(=O)Nc1ccccc1OC (stereo not given),i,-1.1
O=C(CN1C(=O)c2ccccc2S1(=O)=O)N1CCOCC1,i,0.08

Further entries follow.
KCNQ2 block	KCNQ2 block baseline	Structure
i	1.7	O=C1C(Cc2cccc([N+](=O)[O-])c2)S/C(=N/N=C/c2ccco2)N1c1ccccc1 (stereo not given)
i	-0.18	O=c1c2c3c(sc2nc2n1CCCCC2)CCCC3
i	0.27	Cc1ccsc1C(=O)N1CCCC(CCC(=O)NCc2ccc(F)c(F)c2)C1 (stereo not given)
i	-0.35	CCC(C)NC(=O)C1c2ccccc2C(=O)N1Cc1ccccc1 (stereo not given)
i	-1.1	Cc1ccccc1C(=O)N1CCc2ccccc2C1
i	3	Cc1ccc(C(=O)C(C)OC(=O)c2cc3cc([N+](=O)[O-])ccc3oc2=O)cc1 (stereo not given)
i	-0.04	COc1ccc(NS(=O)(=O)c2cn(C)cn2)cc1Cl
i	3	CCCCn1c(O)c(N=NC(=O)c2ccncc2)c2cc(Br)ccc21
i	-0.27	COc1ccccc1CNC(=O)C(=O)c1cn(CC(=O)N2CCOCC2)c2ccccc12
i	0.88	CCOc1ccc(CCNC(=O)c2[nH]c(C)c(C(C)=O)c2C)cc1OCC
i	-1.6	COc1ccc(C(C)=O)cc1COC(=O)CCNS(=O)(=O)c1ccc(C(C)=O)cc1
i	-0.16	C[C@]12C(=O)N(c3ccc(Cl)cc3)C(=O)N1[C@@H]1c3ccccc3OC[C@@H]1[C@H]2c1ccccc1
i	2.2	CCCCCCOC(=O)C(C#N)c1nc2ccccc2nc1N1CCN(CC)CC1 (stereo not given)
i	-0.58	CCOP(=O)(OCC)/C(C#N)=C/c1c[nH]c2ccccc12
i	0.77	O=C(Nc1ccc(OC(=O)c2cccs2)cc1)c1ccco1
i	-0.34	O=C(CCn1ccc2cc(S(=O)(=O)N3CCCC3)ccc21)NCCc1ccccc1
i	-1.6	COCCNC(=O)C(c1cccc(OC)c1)N(C(=O)Cn1nnc2ccccc21)c1cccnc1 (stereo not given)
i	-0.17	COc1ccccc1-c1nnc2sc(COc3ccc(F)cc3)nn12
i	0.78	CCn1c(C(C)NC(=O)Cc2ccccc2)nc2ccccc21 (stereo not given)
i	1.5	Cc1nc2ccc(NC(=O)c3nn(C(C)C)c(=O)c4ccccc34)cc2s1
i	-0.3	Cc1cc(C(=S)N2CCOCC2)c(C)n1-c1ccc(Cl)cc1
i	-0.01	C=CCc1c(C)nc(SC)nc1Nc1ccccc1
i	-1.8	CCN(CC)CCNC(=O)CNC(=O)c1nn(-c2ccc(OC)cc2OC)c(=O)c2ccccc12
i	93	N#CC(C#N)=C1C=C2C=C(N3CCCCCC3)CCC2CC1 (stereo not given)
i	1.1	Cc1cc(C)n(-c2nc3ccccc3nc2N2CCN(S(=O)(=O)c3ccc(F)c(C)c3)CC2)n1
i	0.01	Cc1ccccc1N1C(=O)CC(N2CCC(C(N)=O)CC2)C1=O (stereo not given)
i	0.1	COc1ccc(CNc2nc3c(c(=O)n(Cc4ccc(Br)cc4)c(=O)n3C)n2C)cc1
-6*	0.64*	COc1ccccc1NC(=O)/C(=C/c1cccc([N+](=O)[O-])c1)c1ccccc1
i	0.9	CCN1CCN(CCOc2cccc(Cl)c2Cl)CC1
i	0.69	O=C(OCN1C(=O)c2ccccc2C1=O)c1ccc(Cl)nc1
i	-0.03	COc1ccc(-c2cc(C3CCN(Cc4ccc([N+](=O)[O-])cc4)CC3)[nH]n2)cc1
i	0.87	O=[N+]([O-])c1ccc(Sc2ccc(Cl)c(Cl)c2)nc1
i	0.86	COC(=O)/C=C1\SC(=Nc2ccc(OC)cc2)NC1=O
i	0.49	O=C(CCc1nnc(CCCCc2ccccc2)o1)N1CCC(N2CCCC2)CC1
i	1	Cc1nn(C)cc1C=NCCOCc1ccccc1
i	2.5	O=C(CN1C(=O)S/C(=C\C=C\c2ccccc2)C1=O)N1CCCCC1
i	0.01	COC(=O)c1cc(NS(=O)(=O)c2ccc(N3CCOCC3)c(N)c2)cc(C(=O)OC)c1
i	-0.06	CCn1c2ccccc2c2cc(CN3CCN(S(=O)(=O)Cc4ccccc4)CC3)ccc21
i	1.4	Cc1ccc(-c2cc(-c3ccc(F)cc3)c(C#N)c(N)n2)o1
i	-1.5	CC(NC(=O)c1ccco1)C(=O)N(C)Cc1ccc(C(F)(F)F)cc1 (stereo not given)
i	0.56	O=C(c1cccc(Oc2ccc([N+](=O)[O-])cc2Cl)c1)N1CCCCC1
i	-2.3	COc1ccc(N2CCN(C(=O)CNC(=O)c3ccco3)CC2)cc1
i	-0.34	O=C(Nc1ccccn1)C(NS(=O)(=O)c1cccc2nsnc12)c1ccccc1 (stereo not given)
i	0.86	O=C(COc1ccc(Cl)cc1)Nc1ccc(N2CCN(C(=O)c3ccco3)CC2)cc1
i	-0.02	CCCn1c2c(c(O)c(C(=O)NCCCN(CC)CC)c1=O)CCCC2
i	0.92	N=C1SC(CC(=O)Nc2ccc([N+](=O)[O-])cc2)C(=O)N1c1ccccc1 (stereo not given)
i	-1.4	Oc1ccccc1-c1nc2c3ccccc3c3ccccc3c2[nH]1
